TRPML1 inh: inhibitors of human TRPML1 channel; Q9GZU1; TRPML1-inducible cells, Ca2+ dye fluorescence, FDSS; active compounds read low; inhibition of EC80 agonist-evoked calcium signal; activity change, negative = inhibition, % (concentration not given with the values); 0.02% of 390,000 active; AID 624415; in the data active means activity change below about -50%; inconclusive means about -30% to -50%; inactive means above about -30%;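 note: stimulus is agonist 54-4 at its EC80 concentration; % is set by controls: 0 for no effect and ±100 for the full control effect; the text of the record puts the active cut at -80%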
Target sequence (Q9GZU1 whole entry, looked up): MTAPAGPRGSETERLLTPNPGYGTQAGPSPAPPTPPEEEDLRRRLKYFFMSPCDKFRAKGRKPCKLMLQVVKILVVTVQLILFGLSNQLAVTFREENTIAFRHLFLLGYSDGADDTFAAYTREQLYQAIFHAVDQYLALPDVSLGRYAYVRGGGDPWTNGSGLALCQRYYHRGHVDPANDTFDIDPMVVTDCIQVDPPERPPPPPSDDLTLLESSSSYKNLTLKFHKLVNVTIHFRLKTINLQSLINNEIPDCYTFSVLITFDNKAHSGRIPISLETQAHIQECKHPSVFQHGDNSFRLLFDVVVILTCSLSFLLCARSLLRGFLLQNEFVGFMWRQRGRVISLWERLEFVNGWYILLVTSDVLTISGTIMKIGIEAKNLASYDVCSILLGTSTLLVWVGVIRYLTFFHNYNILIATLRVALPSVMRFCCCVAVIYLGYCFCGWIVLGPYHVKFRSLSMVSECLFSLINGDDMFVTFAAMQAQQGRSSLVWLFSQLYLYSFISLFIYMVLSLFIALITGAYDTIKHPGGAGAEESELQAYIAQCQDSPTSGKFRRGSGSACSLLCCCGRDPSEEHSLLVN
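Calcium fluorescence in TRPML1-DL cells induced overnight with Tet: a 110 s read after compound pin addition, then a 110 s antagonist read after challenge with 54-4 at 4 uM final (EC80).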
Menin-MLL FL inh: displaces fluorescein MLL peptide from human menin; Fluorescence polarization, fluorescein-MLL peptide displacement from menin; FP activity change, % at 61.4 µM; 290,000 tested, under 10 active; AID 1766; inconclusive = falling polarisation curve, or a change in total fluorescence; inactive = total fluorescence flat and polarisation flat or rising; no compound was filed as active; the % refers to the polarisation; negative = inhibition;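 note: % of control where 0% means no effect; inhibitors lower the polarisation; unlabelled MLL peptide was the positive control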
PINK1 modulator: modulators of PINK1 expression; PINK1 immunofluorescence, high-content cytometry, 24 h; Potency, µM (doses to about 76.6 µM), without a hit: top-dose activation (PINK1 increase), hits mostly activators; 0.2% of 410,000 active; AID 624263; active = well fitted activation curve with a large enough effect; inconclusive = small, poorly fitted or top-dose-only effect; inactive = flat fitted curve, though single readings scatter; cell line not stated here;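 note: potency is the fitted concentration of half-maximal effect; % of control where 0% means no effect; nearly all actives have a fitted effect of over 65% in size; a mitochondrial uncoupler was the plate control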
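Stable cell line treated 24 h with compounds at 5 concentrations (CCCP controls), then fixed and immunostained for PINK1 plus nuclear and cell stains; PINK1 immunofluorescence quantified by laser-scanning microplate cytometry.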
ClpP mod: qHTS Assay for Activators of ClpP; 1.9% of 340,000 active; Potency, µM (titrated, usually from 57.5 µM), inactives show top-dose activity change, negative = active; purified B. subtilis ClpP, FRET peptide cleavage, 20 min; active = well fitted falling curve with a large enough effect; inconclusive = small, poorly fitted or top-dose-only effect; inactive = no such curve, though single readings can be large or run the other way; note: potency is the fitted concentration of half-maximal effect; the source files actives as falling curves though it sought activators and does not explain the sign; nearly all actives have a fitted effect of over 65% in size; many hits overshoot -100%
Target sequence (P80244 whole entry, looked up): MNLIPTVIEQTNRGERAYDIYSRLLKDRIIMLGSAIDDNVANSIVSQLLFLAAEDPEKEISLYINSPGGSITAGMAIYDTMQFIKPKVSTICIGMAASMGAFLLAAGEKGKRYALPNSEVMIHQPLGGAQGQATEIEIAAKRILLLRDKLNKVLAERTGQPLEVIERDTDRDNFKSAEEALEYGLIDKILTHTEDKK
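FRET quenching reversal measured ClpP activation: 10 microg/mL B. subtilis ClpP at pH 8 with the FRET-FV decapeptide, read at 430 nm after 320 nm excitation. The 20-min minus 0-min signal was scaled between DMSO/no-enzyme wells and ADEP (5.8 microM final).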
Sfp inh: Sfp phosphopantetheinyl transferase inhibition; Potency, µM, for the others: max response, negative = inhibition, actives largely listed as inhibitors; Q9F4F7; Biochemical Sfp PPTase activity, qHTS; 3.5% of 310,000 active; active = well fitted inhibition curve with a large enough effect; inconclusive = small, poorly fitted or top-dose-only effect, or another doubt; inactive = no such curve, though single readings can be large or run the other way;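 note: the enzyme is Sfp with the accession as filed and its product quenches rhodamine fluorescence; potency is the fitted concentration of half-maximal effect; 0% = enzyme reaction without inhibitor and -100% = no enzyme wells; top concentration of the series not given in the record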
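With Hepes-Na pH 7.6 buffer containing 10 mM MgCl2, Sfp (15 nM) modified BHQ-2-YbbR (12.5 uM) using rhodamine-CoA (5 uM). Two reads 30 minutes apart at 525/598 nm yielded each well's rate.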
TRPML1 ag: activates the human TRPML1 channel. Q9GZU1. TRPML1-expressing cells, Ca2+ dye fluorescence, FDSS; host cell line not named in the record; reference of the full effect not given here. activation, % (concentration not given with the values). 0.12% of 410,000 active. AID 624414; in the data active = activation above about 50%; inconclusive = about 30% to 50%; inactive = below about 30%; note: 0% is about no effect; the text of the record puts the active cut at 80%
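Kinetic FDSS Ca2+ read in Tet-induced TRPML1-DL cells (ABD Ca8 dye plus quencher, 45-90 min RT loading): baseline, then compound, then 110 s agonist window; EC80 agonist 54-4 at 4uM final added afterwards for a 110 s antagonist window.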
TRPV1 PAM: enhances activation of the human vanilloid receptor TRPV1; Q8NER1; potentiation, % at 8.33 µM; TRPV1-expressing cells, Fluo-8 calcium influx, capsaicin EC20 potentiation; host cell line not named in the record; control for the full effect not named in the record; 0.02% of 320,000 active; active means potentiation above 80%; inconclusive means 30% to 80%; inactive means below 30%; note: 0% is about no effect
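TRPV1-expressing cells were cultured overnight at 35.5C and loaded with Fluo-8 calcium dye for 40 to 90 min at room temperature. After a 10 s baseline, compound was added and calcium influx was read kinetically for 3 min (ex 480/em 520 nm).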
Numbers without * were called inactive; ? = inconclusive; · = not tested or not shown; & = joins results of further samples; [ ] = dose if it differs, or a comment. An excerpt; count on the stated rates, not on these rows.

SMILES	TRPML1 inh	Menin-MLL FL inh	PINK1 modulator	ClpP mod	Sfp inh	TRPML1 ag	TRPV1 PAM
C=CCn1c(=O)c(C=Nc2cccnc2Cl)c(O)n(CCCC)c1=O	13.1	?	0.6%	-6.7%	3.7%	0.3	-16.2
CCOC(=O)C(NC(=O)C(Cc1ccc(N(CCCl)CCCl)cc1)NC(C)=O)C(C)C (stereo not drawn)	24.0	-1.2	-0.3%	-3.1%	6.1%	-0.1	7.2
COc1ccc(CN2C(=O)NC(=O)/C(=C\c3cc(OC)c(OC)c(OC)c3)C2=O)cc1	-16.9	0.4	-0.9%	·	-8.5%	0.0	5.9
COc1nc2ccccc2nc1N1CC1	·	·	0.1%	5.1%	·	-0.5	·
O=P(C(Cl)Cl)(N1CCOCC1)N1CCOCC1	-0.2	-1.0	-1.0%	·	20.1%	0.3	9.5
CSCCC(N=Cc1c(O)n(-c2ccc(Br)cc2)c(=O)[nH]c1=O)C(=O)OC(C)(C)C (stereo not drawn)	42.3	9.6	-0.5%	1.2%	8.6%	2.4	?
Cc1ccc(OP(=O)(Nc2cccc(C)c2)Oc2ccc(C)cc2)cc1	28.1	2.4	13.6%	-2.1%	7.5%	0.2	8.7
COC(=NC1CCCC1)C(O)c1c[nH]c2ccccc12 (stereo not drawn)	0.2	0.4	-4.2%	0.8%	6.8%	0.0	-11.7
COc1ccc(OC)c(N2C(=O)/C(=C/c3ccco3)C(=O)NC2=S)c1	23.9	?	2.4%	-1.2%	17.8µM*	-0.5	-14.5
COc1ccc2[nH]c3c(c2c1)CCN1C(=O)C(CC(=O)NCc2cccc(C(F)(F)F)c2)C[C@H](C(=O)N2CCCCC2)[C@@]31C (stereo partly drawn)	31.3	·	?	1.1%	·	-0.8	·
O=C(CCNS(=O)(=O)c1ccccc1)Nc1ccc(Cl)cc1C(=O)c1ccccc1	25.2	-1.6	-2.3%	-0.1%	-19.6%	0.9	8.0
CCN1CCC2(CCNC2)C1 (stereo not drawn)	-12.2	2.3	1.8%	-3.4%	0.0%	-0.1	?
C[C@]12CCC(=O)C[C@@H]1CC[C@@H]1[C@@H]2CC[C@@]2(C)[C@H]1CC[C@]2(C)O	·	1.4	·	·	19.6%	·	-6.0
C=CCN1C(=O)/C(=C/c2cc(C)n(-c3cccnc3)c2C)C(=O)NC1=S	48.9	?	7.0%	-9.3%	-90.6%	1.0	7.7
CCOP(=O)(OCC)C(O)c1cccc([N+](=O)[O-])c1 (stereo not drawn)	2.0	0.1	-0.9%	0.7%	23.2%	-0.7	-1.9
CC(C)C[C@H]1C(=O)N2CCCC2[C@]2(O)O[C@](NC(=O)[C@@H]3C=C4c5cccc6[nH]cc(c56)CC4N(C)C3)(C(C)C)C(=O)N12 (stereo partly drawn)	6.4	?	0.0%	4.2%	-17.6%&-36.7%&-11.0%	2.1	4.9
CN(C)C1(CNC(=O)Nc2ccc(Cl)c(Cl)c2)CCCCC1	-2.4	1.5	-1.3%	·	6.5%	15.8	-5.2
O=c1[nH]c(=S)n(C2CC2)c(O)c1/C=N/Nc1cccc2ccccc12	9.9	?	4.3%	1.3%	20µM*	0.9	4.9
COC(=O)C1=C(c2cccc(OCc3ccccc3)c2)C[C@@H]2CC[C@H]1N2C(=O)NCc1ccccc1	11.7	·	-0.8%	-2.0%	·	1.7	0.2
CC(=NCCC(c1ccccc1)c1ccccc1)c1c(O)n(C)c(=O)n(C)c1=O	5.2	1.6	-1.7%	1.2%	-5.9%	0.8	18.1
O[C@@H]1CCCC[C@H]1N1CCC(c2ccccc2)CC1	-0.7	-2.7&-6.2	1.0%	-1.4%	10.5%&8.9%	-0.7	-4.6&9.1
CC1(C)CC(=O)CC(C)(C)N1O	7.9	·	0.9%	-1.0%	·	-0.7	·
CCOc1cc(C2NCc3ccccc3-n3cccc32)ccc1OC (stereo not drawn)	·	2.4	-0.2%	-0.7%	5.7%	·	?
COC(=O)C1=C(c2cccc(OCc3ccccc3)c2)C[C@@H]2CC[C@H]1N2C(=O)NCCOc1ccc(OC)cc1	3.7	·	-0.7%	-0.3%	·	0.2	4.1
CCOC(=O)C1(CCc2ccccc2)CCN(C2CCSCC2)CC1	23.0	0.4	5.6%	·	79.4µM*	0.6	6.3
CN1CCCN(C(=O)COc2ccccc2)CC1	-0.5	·	-1.0%	-0.4%	13.6%	-0.3	12.3
C[n+]1c(-c2ccccc2)sc2ccccc21	9.0	0.1	2.0%	-7.5%	-2.8%	0.2	-6.1
O=C(C1CCCCC1)N1Cc2ccccc2-n2nncc2C1	7.5	·	-0.6%	-1.7%	·	-0.3	·
CCOC(=O)[C@]12Cc3cc(Cl)ccc3[C@H]1N(CC(=O)OC)C(=O)c1ccccc12	·	·	-1.4%	0.0%	·	-0.8	·
Cc1ccc(N2CCNCC2C)cc1 (stereo not drawn)	-5.6	·	-4.3%	-5.5%	·	0.1	·
Cc1cccc(OP(=O)(Nc2cccnc2)Oc2cccc(C)c2)c1	-2.1	0.9	5.0%	-1.1%	1.0%	-0.1	-3.5
NP(=O)(OCC(F)(F)F)Oc1ccccc1 (stereo not drawn)	-26.0	·	-4.7%	2.6%	·	-0.8	·
O=C(Oc1ccccc1)N1CCC[C@@]2(CCN(Cc3nccs3)C2)C1	·	8.1	2.2%	·	19.8%	·	·
c1ccc(CCNC2CCCCCC2)cc1	·	-2.2	5.1%	1.1%	-14.9%	·	2.5
COC(=O)CSc1nc2sc3c(c2c(=O)n1C1CCCCC1)CCN(C)C3	·	?	·	·	56.2µM*	·	1.2
Cc1cc(C=O)c(C)n1C1CC1	-22.9	-1.2	2.7%	·	12.6%	-0.5	-1.5
CCN(CC)C(=O)c1ccc(NC(=O)COc2ccccc2F)cc1	-3.2	-2.0	0.2%	·	-0.5%	2.9	-5.0
CC(=Nc1ccc2c(c1)CCC2)c1c(O)n(-c2ccccc2)c(=O)[nH]c1=O	-3.8	-0.4	10.1%	·	12.8%	0.3	-3.2
COC(=O)C1=C(c2ccc(F)cc2OCc2ccccc2)C[C@@H]2CC[C@H]1N2C(=O)NCc1ccccc1Br	37.7	·	0.7%	0.5%	·	2.1	11.4
COc1cc(C2c3cc4c(c(O)c3CC3COC(=O)C32)OCO4)cc(OC)c1OC (stereo not drawn)	-12.9	4.5	7.8%&4.2%&14.8%	-2.2%&-4.6%	7.4%	0.1&-0.3	·
Nc1ccccc1C(=O)OCCOc1ccccc1	2.2	-3.2	17.0%	28.2µM*	6.6%	2.2	6.3
COc1ccc(CN2Cc3cnnn3-c3ccccc3C2C)cc1 (stereo not drawn)	14.6	·	9.5%	0.9%	·	1.5	·
COc1ccc2c(c1)C(c1ccc(N(CCCl)CCCl)cc1)=NCC2	9.1	·	?	·	·	1.6	·
N#Cc1cc2c(nc1SCC(=O)Nc1ccc(OC(F)(F)F)cc1)C1CCN2CC1	-1.1	·	13.5%	0.0%	·	-0.9	·
O=C1CN=C(c2ccc(Cl)cc2)c2oc3ccccc3c2N1	7.9	1.4	9.2%	·	1.6%	0.4	-5.2
O=C(c1cccc(Cl)c1)C1CCCN(Cc2cccc3cnccc23)C1 (stereo not drawn)	29.4	7.8	-0.6%	·	-1.4%	3.8	-8.7
CC(=O)N1Cc2cnnn2-c2ccccc2C1C#N (stereo not drawn)	12.2	·	2.6%	-0.3%	·	2.2	·
C=CCN1C(=O)/C(=C/c2ccc3c(c2)CCCN3CCC)C(=O)NC1=S	5.8	?	-2.4%	1.2%	25.1µM*	-0.1	14.9
CN(CC(=O)NC(=O)NCc1ccco1)CC(=O)Nc1ccccc1Cl	·	1.7	-0.9%	-1.1%	?	·	1.1
CCCN1CCc2cc(O)cc3c2[C@H]1Cc1ccc(O)c(O)c1-3	39.9	·	-0.6%&-1.0%	?	·	3.9&-0.3	·
CC(C)C1CN1CC(O)Cn1ccnc1[N+](=O)[O-] (stereo not drawn)	·	·	-1.2%	-1.7%	·	-0.3	·
c1ccc2c(c1)CN(Cc1ccc3c(c1)OCO3)Cc1cnnn1-2	27.6	·	-0.1%	-2.8%	·	1.0	·
Cc1cccc(-n2c(O)c(/C=N/Nc3nc4c(c(=O)n(C)c(=O)n4C)n3C)c(=O)[nH]c2=S)c1	-16.1	11.2	1.7%	-0.7%	56.2µM*	0.1	-1.9
CCOC(=O)[C@]12Cc3cc(Cl)ccc3[C@H]1N(C1CCCCC1)C(=O)c1ccccc12	·	·	-1.4%	-4.1%	·	1.0	·
C=CCOC(Cn1ccnc1)c1ccc(Cl)cc1Cl (stereo not drawn)	29.8	-4.6	0.3%	-0.1%	7.8%	0.3	-6.9
CN1CCc2cc3c(cc2[C@H]1[C@@H]1OC(=O)c2c1ccc1c2OCO1)OCO3	3.7	·	-0.9%	-8.9%	·	-0.9	-1.4
CNc1cc(Cl)c2nonc2c1[N+](=O)[O-]	-17.7	-0.1	0.9%	·	-26.1%	2.2	6.0
Cc1cc(/C=C2\C(=O)NC(=O)N(Cc3ccco3)C2=O)c(C)n1-c1ccc(O)cc1	-8.3	28.1	1.5%	·	?	-0.5	2.1
CCOc1ccc(CN2CCN(C(=O)Cc3ccccc3)CC2)cc1	-1.2	-1.4	1.1%	-0.1%	-9.3%	-0.4	15.3
NC(Cc1ccc(F)cc1)c1csc(Nc2ncccn2)n1 (stereo not drawn)	1.0	·	-0.6%	0.0%	·	0.6	·

More results
SMILES	TRPML1 inh	Menin-MLL FL inh	PINK1 modulator	ClpP mod	Sfp inh	TRPML1 ag	TRPV1 PAM
Cn1c(O)c(C=Nc2ccc3c(c2)CCC3)c(=O)n(C)c1=O	-5.6	-0.6	-0.1%	-25.9%	16.6%	0.2	7.4
Cc1cc(=O)oc2cc(OCC(=O)N3C[C@H]4C[C@@H](C3)c3cccc(=O)n3C4)ccc12	·	1.6	-0.6%	4.5%	1.3%	·	1.6
NS(=O)(=O)c1cccc(N2CCNCC2)c1	-11.1	-4.8	-0.1%	·	7.3%	1.0	-5.1
CCOC(=O)[C@]12Cc3cc(C)ccc3[C@H]1N(C(C)C)C(=O)c1ccccc12	·	·	-1.2%	-1.5%	·	-1.0	·
Cc1csc(=N)n1Cc1ccccc1	19.8	1.0	-0.6%	-1.4%	9.1%	1.5	-6.1
CCOC(=O)C1=C(N)Oc2ccccc2C12C(=O)N(CC(=O)OC)C(CC(=O)OC)=C2C(=O)OC (stereo not drawn)	-9.8	7.0	-2.7%[38.3 µM]	-3.1%	17.7%	0.4	0.8
C=CC1CN2CCC1CC2c1[nH]c2ccccc2c1CCO (stereo not drawn)	15.1	1.9	-2.5%	-13.1%	4.0%	0.6	-2.6
